gsp antag: antagonists of gsp mutant (McCune-Albright syndrome); Potency, µM (top dose mostly 76.9 µM), without a hit: at the top dose activity change, negative = inhibition, usual class: inhibitors; actives 0.4% (n = 340,000); gsp-mutant cells, cAMP HTRF, 30 min; control for the full effect not named in the record; active = falling curve of any shape with a large fitted effect; inconclusive = falling curve, mostly with a smaller effect; inactive = flat or rising curve; cell line not stated here;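 also: intracellular cAMP measured with PDE inhibitor Ro 20-1724 present during compound exposure; potency is read from the fitted curve at half-maximal effect; % is scaled to controls: 0 for no effect and ±100 for the full control effect; nearly all actives have a fitted effect of over 65% in size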
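G418-selected cells were plated in DMEM/10% FBS for 16-24 h at 37C, then treated with compounds plus the PDE inhibitor […] (300 uM solution added) for 30 min at 37C. Intracellular cAMP was measured by HTRF after 30 min lysis at room temperature.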
gsp ag: gsp mutant agonism; gsp mutant cells, cAMP HTRF, 30 min; control for the full effect not named in the record; Potency, µM (top dose mostly 76.9 µM), for the others: at the top dose activation (cAMP increase), hits mostly activators; actives 0.13% (n = 340,000); active = well fitted activation curve with a large enough effect; inconclusive = small, poorly fitted or top-dose-only effect, or another doubt; inactive = no such curve, though single readings can be large or run the other way; cell line not stated here;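 also: phosphodiesterase inhibitor Ro 20-1724 added with compounds to block cAMP breakdown; potency is read from the fitted curve at half-maximal effect; nearly all actives have a fitted effect of over 60% in size; about a fifth of the inactives were tested at one dose only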
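Cells stably selected in G418 were plated at 2000/well, grown 16-24 hr, then given compounds in DMSO with the PDE inhibitor […] (300 uM solution added) for 30 min at 37C; cAMP was read by HTRF.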
ClpP mod: qHTS Assay for Activators of ClpP. purified B. subtilis ClpP, FRET peptide cleavage, 20 min. Potency, µM (series often up to 57.5 µM), for the others: at the highest dose activity change, negative = active. actives 1.9% (n = 340,000). AID 651965, 2013; active = well fitted falling curve with a large enough effect; inconclusive = small, poorly fitted or top-dose-only effect; inactive = no such curve, though single readings can be large or run the other way; also: potency is read from the fitted curve at half-maximal effect; the source files actives as falling curves though it sought activators and does not explain the sign; nearly all actives have a fitted effect of over 65% in size; many hits overshoot -100%
Target sequence (P80244 whole entry, looked up): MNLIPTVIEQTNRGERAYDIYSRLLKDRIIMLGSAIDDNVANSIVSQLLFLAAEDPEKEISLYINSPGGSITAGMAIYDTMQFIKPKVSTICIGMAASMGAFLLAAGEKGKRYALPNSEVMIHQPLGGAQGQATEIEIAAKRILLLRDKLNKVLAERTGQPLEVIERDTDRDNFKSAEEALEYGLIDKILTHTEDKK
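Buffer: 100 mM Tris/HCl pH8, 100 mM KCl, 0.05% low protease BSA, 2.5% glycerol, 0.01% Tween-20. ClpP 10 microg/mL final; 20 min RT; delta FRET normalized to ADEP and DMSO controls.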
Sfp PPTase inh: inhibitors of Bacillus subtilis Sfp phosphopantetheinyl transferase. Q9F4F7. Biochemical Sfp PPTase activity, qHTS. Potency, µM, without a hit: max response, negative = inhibition, actives largely listed as inhibitors. actives 3.5% (n = 310,000). AID 1490; active = well fitted inhibition curve with a large enough effect; inconclusive = small, poorly fitted or top-dose-only effect, or another doubt; inactive = no such curve, though single readings can be large or run the other way;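 also: the enzyme is Sfp with the accession as filed and its product quenches rhodamine fluorescence; potency is read from the fitted curve at half-maximal effect; 0% = enzyme reaction without inhibitor and -100% = no enzyme wells; top concentration of the series not given in the record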
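With Hepes-Na pH 7.6 buffer containing 10 mM MgCl2, Sfp (15 nM) modified BHQ-2-YbbR (12.5 uM) using rhodamine-CoA (5 uM). Two reads 30 minutes apart at 525/598 nm yielded each well's rate.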
Menin-MLL FL inh: displaces fluorescein MLL peptide from human menin | Fluorescence polarization, fluorescein-MLL peptide displacement from menin | FP activity change, % at 61.4 µM | 290,000 tested, under 10 active; inconclusive = falling polarisation curve, or a change in total fluorescence; inactive = total fluorescence flat and polarisation flat or rising; no compound was filed as active; the % refers to the polarisation; negative = inhibition;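 also: % of control where 0% means no effect; inhibitors lower the polarisation; unlabelled MLL peptide was the positive control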
PINK1 expr mod: changes PINK1 expression. PINK1 immunofluorescence, high-content cytometry, 24 h. Potency, µM (doses to about 76.6 µM), without a hit: at the top dose activation (PINK1 increase), most hits filed as activators. actives 0.2% (n = 410,000); active = well fitted activation curve with a large enough effect; inconclusive = small, poorly fitted or top-dose-only effect; inactive = flat fitted curve, though single readings scatter; cell line not stated here;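 also: potency is read from the fitted curve at half-maximal effect; % of control where 0% means no effect; nearly all actives have a fitted effect of over 65% in size; a mitochondrial uncoupler was the plate control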
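Stable cell line treated 24 h with compounds at 5 concentrations (CCCP controls), then fixed and immunostained for PINK1 plus nuclear and cell stains; PINK1 immunofluorescence quantified by laser-scanning microplate cytometry.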
D2 agonist: human D2 receptor agonism in beta-arrestin assay | DiscoveRx PathHunter D2 beta-arrestin, luminescence, 90 min; 100% = 57 uM dopamine signal | activation, % (concentration not given with the values) | actives 0.084% (n = 360,000) | P14416; in the data active = activation above about 40%; inconclusive = about 15% to 40%; inactive = below about 15%; also: compound concentration not given in the record; the text of the record calls up to 30% inactive
Target sequence (P14416 whole entry, looked up): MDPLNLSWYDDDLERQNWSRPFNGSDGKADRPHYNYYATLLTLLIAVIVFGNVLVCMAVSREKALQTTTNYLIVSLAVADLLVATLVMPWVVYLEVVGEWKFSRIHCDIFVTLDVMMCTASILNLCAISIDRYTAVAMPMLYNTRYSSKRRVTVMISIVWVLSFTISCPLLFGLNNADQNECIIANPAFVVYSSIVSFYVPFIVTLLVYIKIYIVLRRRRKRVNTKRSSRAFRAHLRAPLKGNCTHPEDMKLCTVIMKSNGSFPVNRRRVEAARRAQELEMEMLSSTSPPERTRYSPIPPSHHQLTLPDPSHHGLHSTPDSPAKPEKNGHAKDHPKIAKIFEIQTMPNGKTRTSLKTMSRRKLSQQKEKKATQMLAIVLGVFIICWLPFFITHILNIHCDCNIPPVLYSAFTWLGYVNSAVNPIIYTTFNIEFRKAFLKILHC
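Agonist mode: compounds alone added to overnight-plated D2 PathHunter cells for 90 min at 37 C, with 57 uM final dopamine (EC100) defining full response. Beta-arrestin recruitment detected by chemiluminescent reagent, read after 1 h at ambient temperature.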
The depositor's hits bear a star; ? = inconclusive; · = no result given; [ ] = dose if it differs, or a comment. The order is random, and some 5.1% of all compounds hit somewhere here.

smiles,ClpP mod,Menin-MLL FL inh,D2 agonist,Sfp PPTase inh,PINK1 expr mod,gsp antag,gsp ag
CCOc1ccc(-n2c(=S)sc3c(=O)[nH]c(SCC(=O)NCc4ccco4)nc32)cc1,0.5%,6.4,-0.4,56µM*,-0.2%[38.3 µM],-9%,-3%
O=C(COC(=O)/C=C/c1ccc(Cl)cc1Cl)Nc1cc(C(F)(F)F)ccc1N1CCOCC1,1.1%,8.5,-4.2,-3%,2.1%,-1%,-1%[15.4 µM]
O=C(NCc1ccccn1)/C(=C/c1ccco1)NC(=O)c1ccccc1,1.3%,4.1,-2.7,79µM*,2.1%,-8%,-10%
COc1ccc(Cl)cc1NS(=O)(=O)c1cccc(C(=O)NCC2(N(C)C)CCCCC2)c1,-2.2%,·,-0.6,-1%,0.5%,3%,?
O=C1CN(C(=O)/C=C/c2cc(Br)ccc2F)CCN1,·,1.0,-7.6,9%,-0.8%,3%,2%[15.4 µM]
CCN(CC)c1ccc(NC(=O)CN(C)Cc2cccs2)cc1,·,3.2,-3.2,-10%,0.2%,-1%,1%[15.4 µM]
c1ccc(Cn2ncc3c(N4CCOCC4)ncnc32)cc1,-1.7%,-0.7,-0.2,10%,-0.2%,2%,0%
Oc1ccc(/C=N/N2CCN(Cc3ccccc3)CC2)cc1,-1.2%,0.4,-3.9,11%,-0.3%,2%,-6%
Cc1ccc(S(=O)(=O)Nc2ccc(NC(=O)c3cccnc3)cc2)cc1,·,2.5,-0.9,-14%,-0.1%,·,2%[15.4 µM]
COc1cccc(NC(=O)CS(=O)(=O)c2cn(CC(=O)N3CCOCC3)c3ccccc23)c1,-0.4%,-0.5,0.4,11%,0.4%,-4%,-21%
FC(F)(F)c1cccc(Cc2noc(CN(Cc3ccccn3)CC3CCCO3)n2)c1 (configuration not stated),0.9%,2.1,2.8,-2%,1.4%,-9%,-28%
C=Cc1ccc(Cn2c(C)c(C(=O)NCc3cccc(C)c3)sc2=O)cc1,-3.0%,·,1.7,·,0.1%,·,·
Cc1cc(OC(=O)c2cccc(F)c2)c([N+](=O)[O-])c(=O)[nH]1,1.7%,·,-1.2,7%,0.2%,4%,-22%
COc1cc(C(=O)N(CCN(C)C)CC2CCCN(Cc3ccccc3F)C2)ccc1C (configuration not stated),1.3%,0.7,-6.5,5%,1.4%,17%,-7%
COCc1nnc(NC(=O)C2CCN(C(=O)c3ccco3)CC2)s1,·,9.3,-0.9,50µM*,-1.0%,6%,5%[15.4 µM]
COc1ccc(-n2c(C)cc(/C=C3\C(=N)N4N=C(CC(=O)N5CCOCC5)SC4=NC3=O)c2C)c(OC)c1,1.5%,15,-3.5,-3%,14%,?,-49%[inhibitor]
CCOc1ccc2oc(C(=O)OCC(=O)N3C(C)CCCC3C)c(C)c2c1 (configuration not stated),4.3%,·,-1.0,·,1.7%,?,?
CCOc1ccc(N=C2NC(=O)CS2)cc1,-2.0%,-1.5,-4.0,13%,0.3%,4%,3%
CC(=O)N1CCCC(C(=O)c2ccc(Oc3ccccc3)cc2)C1 (configuration not stated),·,-0.1,0.1,3%,-1.4%,-4%,13%
Cc1cccc(CNc2ccnc(-c3ccoc3)n2)c1,·,?,·,50µM*,1.0%,·,·
O=c1ccn2c(n1)SC(c1ccccc1)C2 (configuration not stated),-0.6%,·,-3.1,·,-1.6%,·,-3%
Nc1c(C(=O)NCc2ccc3c(c2)OCO3)c2nc3ccccc3nc2n1CCCN1CCOCC1,?,2.7,7.9,?,1.9%[38.3 µM],8%,?
COC(=O)CSc1nc(C)cc(C(F)(F)F)c1C#N,-10%,9.8,-2.8,16%,0.2%,-6%,14%
CSCCC(NC(=O)COc1ccccc1)C(=O)N1CCN(c2ccccc2O)CC1 (configuration not stated),0.6%,·,-1.5,·,-0.6%,13%,-5%[15.4 µM]
CSc1ccc(C(=O)C2CCCN(C(=O)c3cccnc3SC)C2)cc1 (configuration not stated),-2.8%,1.0,-7.7,-5%,1.0%,-10%,22%
CC(=O)c1c(O)cc(=O)oc1-c1ccc(C)cc1,·,·,-5.6,·,3.8%,4%,12%
COc1cc(OC)cc(OCC(O)Cn2ccnc2C)c1 (configuration not stated),-2.2%,1.7,0.0,13%,-2.2%,-7%,-25%
Cn1c(=NC(=O)c2cnccn2)sc2ccccc21,-0.6%,0.7,-2.3,6%,0.2%,4%,-48%[inhibitor]
Cc1cc(OCCCC(=O)Nc2cc(S(=O)(=O)N3CCOCC3)ccc2N2CCOCC2)ccc1Cl,?,·,2.1,·,-0.5%,-8%,11%
O=C(OCc1c(Cl)nc2sccn12)c1cc2c(s1)CCCC2,-0.5%,1.7,2.0,-2%,0.4%,6%,4%

Random excerpt: 3 compounds from above, in no set order.
smiles,ClpP mod,Menin-MLL FL inh,D2 agonist,Sfp PPTase inh,PINK1 expr mod,gsp antag,gsp ag
Nc1c(C(=O)NCc2ccc3c(c2)OCO3)c2nc3ccccc3nc2n1CCCN1CCOCC1,?,2.7,7.9,?,1.9%[38.3 µM],8%,?
Cc1cccc(CNc2ccnc(-c3ccoc3)n2)c1,·,?,·,50µM*,1.0%,·,·
Cc1cc(OCCCC(=O)Nc2cc(S(=O)(=O)N3CCOCC3)ccc2N2CCOCC2)ccc1Cl,?,·,2.1,·,-0.5%,-8%,11%

Remaining list, next part:
smiles,ClpP mod,Menin-MLL FL inh,D2 agonist,Sfp PPTase inh,PINK1 expr mod,gsp antag,gsp ag
NC(=O)CCC(NS(=O)(=O)c1ccc(Cl)cc1)C(=O)NCc1ccccc1Cl (configuration not stated),-1.9%,-3.2,-0.7,6%,0.0%,-15%,-6%
O=C(CSc1nnc2ccccn12)NCc1ccc2c(c1)OCO2,-1.3%,2.7,-3.5,11%,-1.5%,-1%,?
COCCn1c(SCC(=O)Nc2ccc(OC)cc2)nnc1-c1ccoc1C,·,·,3.7,12%,1.0%,9%,-5%[15.4 µM]
COc1ccc(CCN2C(=S)N(c3ccc(Cl)cc3)C(=O)C2CC(N)=O)cc1OC (configuration not stated),-0.8%,2.6,5.0,-9%,?,-2%,-25%[15.4 µM]
O=C(CN1CCN(C(C(=O)Nc2cc(C(F)(F)F)ccc2Cl)c2ccccc2)CC1)NC1CC1 (configuration not stated),0.8%,·,-3.4,·,4.4%,?,8%
O=C(Cc1cccc(C(F)(F)F)c1)OCN1C(=O)c2ccccc2C1=O,·,-2.9,-1.2,7%,0.1%,19%,-6%[15.4 µM]
CCOc1ccc(N2CC(C(=O)Nc3nnc(C4CCCCC4)s3)CC2=O)cc1 (configuration not stated),0.4%,1.1,-5.1,6%,4.6%,12%,-5%[15.4 µM]
Cc1ccc(-c2nn(-c3ccccc3)cc2C(=O)NCC(c2cccs2)N2CCOCC2)cc1 (configuration not stated),-8.3%,·,-3.0,·,-1.6%,?,8%
O=C(N/N=C/c1ccc(Cl)s1)C(O)c1ccccc1 (configuration not stated),0.3%,-3.9,-3.9,-14%,3.0%,4%,?
CCCn1c(=O)c(C(=O)NNC(=O)c2ccc(Cl)cc2Cl)c(O)c2ccccc21,-0.4%,-4.7,0.5,24%,4.3%,3%,15%
COc1c(Cl)ccc(Cl)c1C(=O)NC(=O)N1CCOCC1,0.3%,-7.2,2.8,13%,2.2%,13%,7%
C=CCNC(=O)/C(=C/c1ccccc1OCC)NC(=O)c1ccccc1,?,-0.1,1.5,27%,1.5%,0%,-6%
COc1cccc(NC(=O)c2cnc(NS(=O)(=O)c3ccccc3)nc2)c1,-1.5%,·,-2.0,·,1.2%,·,-86%[inhibitor]
COc1ccc(/C=C/C2=CC(C)(C)NC(=S)N2)cc1OC,-5.1%,0.6,-3.7,13%,2.5%,3%,14%
COc1ccccc1NC(=O)CN1CCN(CC(=O)Nc2ccccc2F)CC1,-1.1%,·,?,·,2.3%,9%,23%
CCOC(=O)N1N=C(C)CC1(O)c1ccc(Cl)cc1 (configuration not stated),·,-0.1,0.1,5%,-0.1%,·,-1%[15.4 µM]
O=C(Nc1cccnc1)c1cc(-c2cccs2)on1,-8.5%,10,-2.1,2%,5.8%[38.3 µM],0%,-4%
CC1(C)CC(NC(=O)C(=O)NCCc2ccccc2)CC(C)(C)N1,0.4%,-0.1,-3.6,3%,-0.6%,6%,1%
CC(C)c1cccc(-c2csc(C(O)c3ccco3)n2)c1 (configuration not stated),1.0%,·,-2.5,·,10%,·,·
CCOC(=O)c1nnc(-c2ccc(C)cc2)nc1Sc1ccc(Cl)cc1,-2.2%,7.5,-5.3,-4%,15%,-13%,-11%
COCCNC(=O)C1CCC(=O)N(c2ccc(OC)cc2)C1c1ccc(OC)c(OC)c1 (configuration not stated),-0.8%,2.1,-2.3,15%,0.4%,-2%,-28%
CCCNC(=O)C(Cc1ccccc1)NC(=O)c1ccccc1 (configuration not stated),0.2%,·,-6.9,·,-0.2%,7%,-5%
Cc1cc(=O)[nH]c(N/N=C/c2c(C)nn(-c3ccccc3)c2Cl)n1,·,-1.4,0.4,-4%,6.4%,-18%,-9%[15.4 µM]
O=C(CN(c1ccccc1)S(=O)(=O)c1ccccc1[N+](=O)[O-])Nc1cccnc1,0.1%,-0.3,14,7%,0.4%,-16%,?
Cc1ccc(CNC(=O)c2ccccc2-n2cnnn2)cc1,·,3.9,-3.6,15%,3.1%,2%,-3%[15.4 µM]
Nc1ncnc2nn(C3OC(CO)C(O)C3O)nc12 (configuration not stated),-25%,·,0.0,·,0.0%,·,0%
Cc1ccc(N(CC(=O)Nc2cc(Cl)ccc2Oc2ccccc2)S(C)(=O)=O)cc1C,15%,-1.4,-4.5,20%,5.8%,-21%,-2%
COc1ccc(S(=O)(=O)NCCSCc2ccco2)cc1OC,0.4%,8.5,-0.8,28µM*,·,-15%,-48%[inhibitor]
